Bead autofluor = flagged as autofluorescent in microsphere protease counterscreen. compound autofluorescence counterscreen, microsphere flow cytometry; stronger effect = higher value. fluorescence intensity (concentration not given with the values). actives 3.1% (n = 360,000). AID 624483;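 active means at least 3 SD above the mean of all compounds, about 16000 in these data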;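 further: 100 nL of 1 mM stock went into each well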
PrP 5UTR inh = suppresses PrP 5' UTR mRNA reporter expression. actives 0.35% (n = 340,000). inhibition, % (test concentration not listed). AID 488862. cell-based PrP 5' UTR mRNA reporter, plate reader;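 active means every replicate at 50% or more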;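 further: 0 = median of the neutral control wells; tested in H4 reporter cells; numbers are from one replicate; inactives centre near -14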
Numbers without * were called inactive. A portion of the library, so the mix of outcomes need not match the whole.

Compound	Bead autofluor	PrP 5UTR inh
C[C@H](CO)N1C[C@H](C)[C@@H](CN(C)S(C)(=O)=O)Oc2c(NC(=O)Cc3ccccc3)cccc2C1=O	3690	-8.4
Cc1cccc(C)c1NC(=O)CN(C)C(=O)C1CC1C (stereo unspecified)	4039	-21.9
CN(C)N=O	4333	-11.3
Nc1cccc2[nH]c(=O)c3ccccc3c12	3701	-9.6
O=C(N[C@@H]1C/C=C\C[C@H](CC(=O)N(CCO)Cc2ccccc2)C(=O)NC[C@@H](c2ccccc2)OC1=O)OCC1c2ccccc2-c2ccccc21	3782	4.6
COc1ccc(CC(=O)Nc2cc(Cl)ccc2C(=O)O)cc1	4155	-16.7
C=CC[C@H](CC(=O)NCCO)C(=O)N[C@H](COC(=O)[C@@H](CC=C)Cc1ccc(F)cc1)C(C)(C)C	3603	-12.2
O=[N+]([O-])c1ccc2c(c1)C(=NO)c1cc(Cl)c(Cl)cc1-2	3600	-16.7
Cc1ccccc1S(=O)(=O)N1C[C@H]2CON(C)[C@H]2C[C@H]1c1cccc(-c2ccc(C#N)cc2)c1	3460	-35.6
CC(C)(O)CN(C(=O)C(c1ccccc1)c1ccccc1)C1CCCCC1	4397	-7.4

More compounds
Compound	Bead autofluor	PrP 5UTR inh
COc1ccc(S(=O)(=O)N(C)C[C@H]2Oc3ccc(NS(=O)(=O)c4c(C)noc4C)cc3C(=O)N([C@H](C)CO)C[C@@H]2C)cc1	4411	-15.6
Cc1cn([C@H]2C[C@H](O)[C@@H](COS(=O)(=O)O)O2)c(=O)[nH]c1=O	2705	-15.8
COc1ccc(S(=O)(=O)N(C)C[C@H]2Oc3ccc(NC(=O)Nc4ccc5c(c4)OCO5)cc3C(=O)N([C@H](C)CO)C[C@@H]2C)cc1	4041	-0.6
C=CCn1c(SCC(=O)Nc2ccc(O)cc2)nc2sc(C)c(C)c2c1=O	4254	-9.2
O=C(O)C1=C(C2CCCCC2)C(=O)c2ccccc21	2880	24.2
CN(C)CC1CCC/C(=C/c2ccc(Cl)cc2)C1=O (stereo unspecified)	3282	4.0
CC(C)(C)OC(=O)NCc1ccc(NC(=O)c2nc[nH]c2C(=O)NCCCCNC(=O)c2[nH]cnc2C(=O)Nc2ccc(CNC(=O)OC(C)(C)C)cc2)cc1	3997	18.9
Cc1cn([C@H]2C[C@H](O)[C@@H](CCC(=O)NCc3ccco3)O2)c(=O)[nH]c1=O	3703	1.5
COC(C(=O)C(O)C(C)O)C1Cc2cc3cc(OC4CC(OC5CC(O)C(O)C(C)O5)C(O)C(C)O4)c(C)c(O)c3c(O)c2C(=O)C1OC1CC(OC2CC(OC3CC(O)C(OC)C(C)O3)C(O)C(C)O2)C(O)C(C)O1 (stereo unspecified)	3603	69.5*
CC(C)(C)OC(=O)C[C@H]1C/C=C\C[C@@H](CC(=O)N[C@@H](CO)Cc2ccccc2)C(=O)NC[C@H](c2ccccc2)OC1=O	4052	-10.2

Later entries:
Compound	Bead autofluor	PrP 5UTR inh
CCCCNCCS(=O)(=O)NCc1ccccc1	3516	-9.6
COc1ccc(CCN2CC(C(=O)Nc3nccs3)CC2=O)cc1OC (stereo unspecified)	4084	-19.7
COc1cccc(CNS(=O)(=O)c2ccccc2Br)c1OC	3498	-16.0
COc1ccc(S(=O)(=O)N2CCN(CCOc3ccc(Br)cc3)CC2)cc1OC	3922	1.8
COc1cccc([C@@H]2CC=C(C(=O)O)[C@H](c3cccc(Cl)c3)N2S(=O)(=O)c2ccc(C)cc2)c1	3805	-17.6
CC[C@H](C)Cc1cn([C@@H](CCCCNC(=O)OC(C)(C)C)C(=O)NCCCCCCCCCCC(=O)N2CCN(C(=O)OC(C)(C)C)CC2)nn1	2843	-6.2
O=C(Nc1cccc(C(=O)N2CCCCC2)c1)C1CCC1	3874	-18.5
COC(=O)C1=C(c2ccc(Cl)c(C(F)(F)F)c2)C[C@@H]2CC[C@H]1N2C(=O)N1CCCC1	3817	-16.7
CC1(C)C[C@H]2C3=CCC4[C@@]5(C)CC[C@H](O[C@@H]6O[C@H](C(=O)O)[C@@H](O)[C@H](O)[C@H]6O)[C@@](C)(CO)C5CC[C@@]4(C)[C@]3(C)C[C@H](O)[C@@]2(CO)[C@@H](O)[C@@H]1O (stereo partly specified)	3888	6.4
CN1CC(=O)N2[C@H]3c4ccccc4OC[C@@H]3[C@H](c3ccccc3)[C@]2(C)C1=O	3703	-23.5

New compounds follow.
Compound	Bead autofluor	PrP 5UTR inh
C#CC(=O)CC1(CN(Cc2ccccc2)C(=O)OC(C)(C)C)CCCCC1	3912	-10.5
O=C(COC(=O)Cc1ccsc1)NNC(=O)c1ccccc1	2893	-39.4
COc1ccc2c(=O)c3c(=O)n(CCc4ccccc4)c(C)nc3oc2c1	6523	-17.1
O=C(CN1C(=O)c2ccc([N+](=O)[O-])cc2C1=O)Nc1nnc(C2CC2)s1	3042	-20.1
C/C(=N/NC(=O)c1ccncc1)c1cc2ccc(O)cc2oc1=O	3743	-10.3
C[C@@H]1COC(=O)[C@H](CC(=O)OC(C)(C)C)C/C=C\C[C@H](CC(=O)NCCO)C(=O)N1	4243	-18.4
COc1cc(N)c(Cl)cc1C(=O)NC1CCN(Cc2ccccc2)CC1	5903	11.4
COc1ccc([C@H]2CC(=O)C=C(c3ccc(Cl)c(C(F)(F)F)c3)C2)cc1	3889	-17.5
COC(=O)[C@H](CCSC)NC(=O)Cn1cc(C)c(=O)[nH]c1=O	3835	-5.1
CC(=NNC(N)=O)C1=C(O)C(C(C)C)NC1=O (stereo unspecified)	3630	-6.7

New compounds follow:
Compound	Bead autofluor	PrP 5UTR inh
CC1CCN(c2ccc3c(c2)S(=O)(=O)c2cccc(C(=O)NC[C@@H]4CCCO4)c2C3=O)CC1	3805	-24.7
C[C@H](CO)N1C[C@H](C)[C@@H](CN(C)C(=O)Nc2ccc3c(c2)OCO3)Oc2c(NS(=O)(=O)c3ccccc3)cccc2C1=O	2931	1.4
CC(C)(C)CCN1CCC(CN2CCNC(=O)C2=O)CC1	3416	-11.5
O=C(OCc1ccccc1)N1CCC2CC1c1c(-c3ccc(C(F)(F)F)cc3)cccc12 (stereo unspecified)	3681	-19.6
C#CCOCCOCCOCCNc1nc(N2CCN(C(=O)Cn3cc(CC(C)O)nn3)CC2)nc(N2CCN(C(=O)[C@H](CCCCN)n3cc(CC(C)O)nn3)CC2)n1 (stereo partly specified)	4276	-17.3
CC(C)NC(=O)Nc1ccc2c(c1)C(=O)N([C@H](C)CO)C[C@H](C)[C@@H](CN(C)S(=O)(=O)c1ccc(F)cc1)O2	3127	-20.8
O=C(N/N=C/c1ccc(Cl)cc1)C(=O)N1CCCCCC1	4598	-20.4
COc1ccc(Nc2cc(C)nc3ncnn23)cc1	3960	-20.6
CCC(C)Sc1ccc([C@@H]2[C@H]3C(=O)N(C)C(=O)[C@H]3[C@]3(C(=O)OC)CCCN23)cc1 (stereo partly specified)	2873	45.4
COc1ccc2[nH]c3c(C)c4cc[n+](C)cc4c(C)c3c2c1	3172	-17.7

(further entries)
Compound	Bead autofluor	PrP 5UTR inh
CC(CCN1CC1)=NNC(=O)Nc1cccc2ccccc12	4030	3.5
COC(=O)[C@@]1(Cc2ccc(OC)cc2)[C@H]2c3cc(C(=O)N(C)C)n(CCSCCO)c3C[C@H]2CN1C(=O)c1ccccc1	2920	-5.2
C=CS(=O)(=O)N(Cc1ccccc1)[C@H](CO)CC(C)C	3871	-12.1
C[C@H](CO)N1C[C@H](C)[C@@H](CN(C)Cc2ccncc2)Oc2c(NC(=O)Cc3ccccc3)cccc2C1=O	2996	0.9
CCOc1ccc(CN(C)Cc2cc(=O)oc3c(C)c(C)ccc23)cc1OC	3912	1.6
O=C1c2ccccc2NC(c2ccc(-c3ccc(F)cc3)o2)N1O (stereo unspecified)	3012	-73.5
NC(=O)c1ccc(N)nc1	6267	-22.4
O=C1[C@H](Cc2ccccc2)NCC=CC[C@H](c2ccco2)N1Cc1ccccc1	4495	-15.9
C=CC[C@@H](CC(=O)N[C@H](CO)Cc1ccccc1)C(=O)N[C@@H](C)COC(=O)[C@@H](CC=C)CC(=O)OC(C)(C)C	3388	-12.3
Cc1sc2c(c1C)c(=O)n(-c1ccc(F)cc1)c(=O)n2CC(=O)NCc1ccco1	3365	-26.0

(listing goes on)
Compound	Bead autofluor	PrP 5UTR inh
COC(=O)C1=C(c2ccccc2OCc2ccccc2)C[C@@H]2CC[C@H]1N2C(=O)NCc1ccc(Cl)cc1	3648	-16.3
O=C(OCC(=O)N1CCN(c2ccc(F)cc2)CC1)c1cnc2ccccc2n1	3969	-20.4
O=C(Nc1cccc(C(=O)N2CCCC2)c1)C1CC1	3084	-15.4
CC1C(c2ccccc2)OCCN1C (stereo unspecified)	3638	-23.7
Cc1ccc(S(=O)(=O)N(C)C/N=C(\N)N[N+](=O)[O-])cc1	3953	-24.0
c1ccc(-[n+]2nc(Nc3cccc4ccccc34)sc2-c2c3ccccc3cc3ccccc23)cc1	3368	-11.1
CCCc1cc(CN2CCOCC2)c(O)c(CN2CCOCC2)c1O	4231	-13.3
COc1ccc([C@H]2CC(=O)C=C(c3cccc4c3Oc3ccccc3S4)C2)cc1OC	3886	-15.2
O=c1c2c(O)cc(O)cc2oc2c(O)ccc(O[C@H]3O[C@@H](CO)[C@H](O)[C@@H](O)[C@@H]3O)c12	3624	-36.1
Cc1noc(C)c1NC(=O)Nc1cccc2c1O[C@H](CN(C)C(=O)NC(C)C)[C@@H](C)CN([C@H](C)CO)C2=O	3023	-14.4

Rewritten field by field: entries from further up.
> Cc1ccc(S(=O)(=O)N(C)C/N=C(\N)N[N+](=O)[O-])cc1
  Bead autofluor = 3953; PrP 5UTR inh = -24.0

> CCCc1cc(CN2CCOCC2)c(O)c(CN2CCOCC2)c1O
  Bead autofluor = 4231; PrP 5UTR inh = -13.3

> CC1C(c2ccccc2)OCCN1C (stereo unspecified)
  Bead autofluor = 3638; PrP 5UTR inh = -23.7

> O=C(OCC(=O)N1CCN(c2ccc(F)cc2)CC1)c1cnc2ccccc2n1
  Bead autofluor = 3969; PrP 5UTR inh = -20.4

(cont.)
Compound	Bead autofluor	PrP 5UTR inh
Cc1ccc(C(C)C)cc2c(C)ccc1-2	5523	-14.7
COc1ccc2oc(=O)c(/C(C)=N/NC(=O)c3ccncc3)cc2c1	2264	-33.5
CC1=CC2OC3CC4OC(=O)C=CC=CC(=O)OCCC(C)C(O)C(=O)OCC2(CC1)C4(C)C31CO1 (stereo unspecified)	3659	94.0*
O=C1CCN(CC2CCCCC2)C=C1C(=O)c1ccccc1	4180	-18.0
C[C@H]1CN(S(=O)(=O)c2c(F)cccc2F)CCN1S(=O)(=O)c1ccc2c(c1)OCCO2	3842	5.9
Cc1ccc(S(=O)(=O)N2[C@@H](c3ccc(Cl)cc3)C(C(=O)O)=CC[C@H]2c2cccs2)cc1	3632	-7.6
COc1cc(O)c(C(C)=O)c(OC)c1	5397	-41.6
CC(=O)c1ccc(OCCCC(=O)Nc2ccc(Cl)c(S(=O)(=O)N3CCOCC3)c2)cc1	2985	12.0
O=C(NN=Cc1cc(=O)[nH]c(=O)[nH]1)c1ccncc1	3847	-11.9
C#CCOCCOCCOCCNc1nc(N2CCN(C(=O)[C@H](CC(N)=O)n3cc(C(N)[C@@H](C)CC)nn3)CC2)nc(N2CCN(C(=O)[C@H](CCCCN)n3cc([C@@H](N)CC(N)=O)nn3)CC2)n1 (stereo partly specified)	4037	-6.1

Following part.
Compound	Bead autofluor	PrP 5UTR inh
COc1ccccc1NC(=O)C1CCN(S(=O)(=O)c2cccs2)CC1	2999	-26.6
Cc1ccc2c(c1)[C@H]1[C@H](CO2)[C@H](c2ccccc2)[C@]2(C)C(=O)Nc3ccc(Br)cc3C(=O)N12	4022	-14.7
O=C(OCC#CCSc1nnc(-c2ccncc2)o1)c1sc2ccccc2c1Cl	2839	-6.5
C#CCOCCOCCOCCNc1nc(N2CCN(C(=O)[C@H]([C@@H](C)CC)n3cc([C@@H](N)Cc4ccc(O)cc4)nn3)CC2)nc(N2CCN(C(=O)[C@H](Cc3cc4ccccc4[nH]3)n3cc([C@@H](N)CC(C)C)nn3)CC2)n1	4190	-17.3
COCCNC(=O)[C@@H]1CCCN1S(=O)(=O)c1cccc2cccnc12	3953	-18.3
COC(COC(N)=O)C1=C(N2CC2)C(=O)C(C)=C(N2CC2)C1=O (stereo unspecified)	3396	-28.8
C#CCOCCOCCOCCNc1nc(N2CCN(C(=O)CCCCCCCCCCNC(=O)[C@H](CO)n3cc(CCCSC)nn3)CC2)nc(N2CCN(C(=O)CCCCCCCCCCNC(=O)[C@H](CCCCN)n3cc(CCO)nn3)CC2)n1	3140	-19.8
COc1ccccc1CNS(=O)(=O)CCNCc1ccco1	4085	-22.3
N#Cc1c(/N=C/c2ccc(Br)s2)sc2c1CCC2	3453	-76.7
COC(=O)C1=C(C)N(Cc2ccccc2)C(=NCCCOC(C)C)N[C@H]1c1ccccc1	4895	-18.8

(more compounds)
Compound	Bead autofluor	PrP 5UTR inh
CCOC(=O)[C@H]1[C@H]2COc3ccc(C)cc3[C@@H]2N2C(=O)CN(Cc3ccc(F)cc3)C(=O)[C@@]12C	5132	-12.0
CC(=NNC(=S)N1CC2CCC(CC2)C1)c1ccncn1	3716	20.8
O=C(N/N=C/c1coc2ccccc2c1=O)c1cc(O)cc(O)c1	4106	-61.9
CCN(C[C@H]1N[C@@](C)(C(=O)OC)[C@H]2C(=O)N(C)C(=O)[C@@H]12)S(=O)(=O)c1ccc(C(F)(F)F)cc1	3785	-17.7
CC(C)(C)OC(=O)Nc1ccc([C@H](NC(=O)OC(C)(C)C)C(=O)OC(C)(C)C)cc1	3839	-30.1

Screens: PubChem BioAssay, several laboratories
